DUX4 inh – blocks DUX4-driven transcriptional activation; 293T-iDUX4 ZSCAN4-Gaussia luciferase reporter, 24 h; active compounds read low; activity change, negative = inhibition, % (test concentration not listed); 0.8% of 37,000 active; AID 1224904;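 active = -10% or lower and over 25 points stronger than a control reporter; inconclusive = -10% or lower with a smaller gap; inactive = above -10%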;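 note: 0% = median of neutral control wells and -100% = median of positive control wells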
DUX4 inh difference – recorded beside DUX4 inh, whose call it bears; Gaussia minus Italica difference, %; measured here: selective DUX4 reporter inhibition;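 worked out from the two reporters; negative = selective loss of the DUX4 reporter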
DUX4 inh control – recorded beside DUX4 inh, whose call it bears; activity change, negative = inhibition, %; measured here: Italica tet-on control reporter;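 0 = neutral control and -100 = positive control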
* hit, by the source's call; ? = inconclusive; . = no result given. These rows are one share of the data, so the mix of outcomes need not match the whole.

SMILES | DUX4 inh | DUX4 inh difference | DUX4 inh control
CN1CCN(C(=O)C[C@H]2CC[C@@H]3[C@H](COC[C@H](O)CN3C(=O)c3ccccc3F)O2)CC1 | 3 | -5 | 7.5
C[C@@H]1CN([C@@H](C)CO)C(=O)c2ccccc2-c2ccccc2CO[C@H]1CN(C)C(=O)Nc1ccnc(N2CCOCC2)c1 | 4 | 7 | -3.9
CC1C=NC(S(=O)(=O)N2CC[C@@H]3[C@H](CO)N(C)c4ccc(-c5ccccc5F)cc4[C@@H]32)=N1 (stereo not given in full) | 19 | 20 | -1.1
N#C[C@@H]1[C@H](c2ccccc2-c2ccccc2)[C@@H](CO)N1C(=O)Cc1cccnc1 | 14 | -2 | 17
CCC(=O)N1CC(=O)N2[C@H](CO)[C@H](c3ccc(-c4ccc(C#N)cc4)cc3)[C@@H]2C1 | -5 | -8 | 2.7
COCCNC(=O)C[C@H]1CC[C@@H]2[C@@H](COc3ccc(NC(=O)Cc4ccccc4)cc3C(=O)N2C)O1 | 1 | 11 | -11
CC(=O)N1[C@@H](CO)[C@@H](c2ccccc2)C12CN(C(=O)CN1CCOCC1)C2 | 7 | 4 | 2.9
CCCNC(=O)Nc1ccc2c(c1)C(=O)N(C)C[C@H](OC)[C@@H](C)CN(C)[C@H](C)CO2 | 2 | 2 | -0.2
COc1ccc(NC(=O)N[C@H]2CC[C@@H](CCn3cc(C4(O)CCCC4)nn3)O[C@@H]2CO)cc1 | 1 | 15 | -14
CN1C(=O)c2cc(NC(=O)c3ccc(F)c(F)c3)ccc2OC[C@@H]2O[C@H](CC(=O)N3CCCCC3)CC[C@@H]21 | 0 | -4 | 3.8
C[C@H](NC(=O)[C@@H]1[C@@H](CO)[C@@H]2Cn3c(ccc(-c4ccccc4)c3=O)[C@H]1N2C)c1ccccc1 | 10 | 7 | 3.2
C[C@@H]1CN([C@@H](C)CO)C(=O)c2cc(C#Cc3ccccn3)cnc2O[C@H]1CN(C)Cc1cccnc1 | -3 | -7 | 3.8
COCC(=O)N(C[C@@H]1N[C@@H](CO)[C@H]1c1ccc(-c2ccccc2)cc1)C(C)C | 0 | -5 | 5.4
O=C(C[C@@H]1CC[C@H]2[C@@H](COC[C@H](O)CN2S(=O)(=O)c2cccc(F)c2)O1)NCc1ccncn1 | 3 | 1 | 2.2
COCC(=O)Nc1ccc2c(c1)C(=O)N(C)[C@H]1CC[C@@H](CC(=O)NCCCN(C)C)O[C@H]1CO2 | -5 | -2 | -3.2
O=S(=O)(Cc1ccccc1)N1[C@@H]2CNC[C@H]1C2c1ccc(-c2ccccc2)cc1 (stereo not given in full) | 4 | -9 | 13
C/C=C/c1ccccc1[C@H]1[C@@H](C#N)N(C(C)=O)[C@@H]1CO | 12 | -1 | 12
COc1ccc(OC(=O)N(C)C[C@@H]2OCc3cn(nn3)CCCC(=O)N([C@@H](C)CO)C[C@@H]2C)cc1 | 0 | -2 | 1.9
O=C(C1CCOCC1)N1[C@H](CO)[C@@H](c2ccccc2)C12CN(Cc1cccc(Cl)c1)C2 | 3 | 1 | 2.3
COc1ccc2c3c([nH]c2c1)[C@H](CO)NCC31CCN(C(=O)Nc2ccc(F)cc2F)CC1 | 8 | -4 | 12
CC=Cc1ccc2n(c1=O)C[C@@H]1[C@@H](CO)[C@H](C(=O)NCCC)N(Cc3cccnc3)[C@H]21 (mixture of isomers) | 2 | -2 | 4.5
COc1ccc(S(=O)(=O)N(C)C[C@@H]2Oc3c(cccc3N(C)C)C(=O)N([C@@H](C)CO)C[C@@H]2C)cc1 | -2 | 0 | -1.2
COc1ccc2c3c([nH]c2c1)[C@H](CO)N(Cc1ccccc1F)CC31CCN(S(C)(=O)=O)CC1 | 10 | 0 | 9.8
COc1ccc2c3c(n(C)c2c1)[C@@H](CO)NCC31CCN(C(=O)Nc2ccccc2F)CC1 | 3 | -3 | 5.8
C[C@H](CO)N1C[C@H](C)[C@H](CN(C)Cc2ccc(C(=O)O)cc2)Oc2ccc(NS(=O)(=O)c3ccccc3)cc2CC1=O | 1 | 2 | -0.5

Individual results from the entries so far:
Result of COCC(=O)Nc1ccc2c(c1)C(=O)N(C)[C@H]1CC[C@@H](CC(=O)NCCCN(C)C)O[C@H]1CO2 under DUX4 inh difference: -2
Result of COc1ccc2c3c([nH]c2c1)[C@H](CO)N(Cc1ccccc1F)CC31CCN(S(C)(=O)=O)CC1 under DUX4 inh: 10
Result of CC(=O)N1[C@@H](CO)[C@@H](c2ccccc2)C12CN(C(=O)CN1CCOCC1)C2 under DUX4 inh: 7
Result of N#C[C@@H]1[C@H](c2ccccc2-c2ccccc2)[C@@H](CO)N1C(=O)Cc1cccnc1 under DUX4 inh difference: -2
Result of COc1ccc(NC(=O)N[C@H]2CC[C@@H](CCn3cc(C4(O)CCCC4)nn3)O[C@@H]2CO)cc1 under DUX4 inh: 1

The list continues.
SMILES | DUX4 inh | DUX4 inh difference | DUX4 inh control
C[C@@H]1CN([C@@H](C)CO)C(=O)c2cc(NC(=O)Cn3cnnn3)ccc2O[C@@H]1CN(C)C(=O)Nc1ccc2c(c1)OCO2 | 0 | -2 | 1.2
CCC(=O)N1CCCCN2[C@H](C1)[C@H](c1ccc(-c3cccc(C#N)c3)cc1)[C@@H]2CO | 7 | 14 | -7.0
COc1ccccc1CNC(=O)C[C@@H]1C[C@H]2c3cc(NC(=O)CN(C)C)ccc3O[C@H]2[C@H](CO)O1 | 3 | -4 | 7.0
CC(=O)N1CC2(C1)[C@H](c1ccc(-c3ccc(F)cc3)cc1)[C@H](CO)N2C(C)=O | -9 | -15 | 5.7
COCC(=O)N1CC[C@@H]2[C@H](CO)Nc3ccc(C#Cc4ccc(F)cc4)cc3[C@@H]21 | 9 | 7 | 2.4
O=C(c1cccc(F)c1)N1CC2(C1)[C@H](c1ccccc1)[C@H](CO)N2C(=O)C1CCOCC1 | 4 | 4 | -0.5
C[C@H]1CN([C@@H](C)CO)C(=O)c2c(c3ccccc3n2C)-c2ccccc2CO[C@H]1CN(C)Cc1cccc(C(=O)O)c1 | -2 | -5 | 3.7
C/C=C/c1ccc2c(c1)[C@@H]1[C@@H](CCN1S(=O)(=O)c1ccccc1C)[C@H](CO)N2 | ? | . | .
CCCNC(=O)N1[C@@H]2CN(C(=O)c3cccnc3)c3ccccc3[C@@H]2[C@@H]1CO | 0 | 6 | -5.2
CS(=O)(=O)N1CC(=O)N2[C@H](CO)[C@H](c3ccc(C#CCc4ccccc4)cc3)[C@@H]2C1 | ? | . | .
C[C@H]1CN([C@@H](C)CO)C(=O)c2cc(C#CC3(O)CCCC3)cnc2O[C@@H]1CN(C)Cc1ccccc1 | -1 | -2 | 1.1
CCCNC(=O)[C@@H]1[C@@H](CO)[C@@H]2Cn3c(ccc(-c4ccc(F)cc4)c3=O)[C@H]1N2CCC | -1 | -2 | 0.5
C[C@@H]1CN([C@H](C)CO)C(=O)c2cccc(NC(=O)C3CCCCC3)c2O[C@@H]1CN(C)Cc1ccc(C(=O)Nc2ccccc2N)cc1 | 0 | 1 | -0.1
COc1ccccc1C(=O)N1C[C@@H]2[C@H](c3ccccc31)[C@H](CO)N2CC1CCOCC1 | 3 | 5 | -1.8
COc1ccc(S(=O)(=O)N(C)C[C@@H]2OCc3ccccc3-c3ccccc3C(=O)N([C@@H](C)CO)C[C@@H]2C)cc1 | 1 | 4 | -3.7
COC(=O)C[C@H]1C[C@@H]2c3cc(N(C)C)ccc3O[C@@H]2[C@@H](CO)O1 | 0 | 3 | -2.8
CN1C[C@H]2[C@@H](c3ccccc31)[C@@H](CO)N2C(=O)C1CCOCC1 | 0 | -2 | 2.2
COCC(=O)Nc1ccc2c(c1)C(=O)N(C)C[C@H](OC)[C@H](C)CN(Cc1ccccn1)[C@H](C)CO2 | 2 | -1 | 2.7
COc1cccc(CN2[C@@H]3CNC[C@H]2C3c2ccc(-c3ccc(C#N)cc3)cc2)c1 (stereo not given in full) | 4 | 5 | -0.8
O=C(C[C@H]1CC[C@H]2[C@@H](COC[C@@H](O)CN2C(=O)c2ccccc2F)O1)NCc1ccc(F)cc1 | 16 | 2 | 14
C[C@@H]1CN([C@@H](C)CO)C(=O)c2cc(NC(=O)CCN3CCOCC3)ccc2O[C@H]1CN(C)CC1CCCCC1 | -1 | 2 | -2.9
COc1ccc(NC(=O)N(C)C[C@H]2OCCCC[C@@H](C)Oc3ccc(NC(=O)c4ccncc4)cc3C(=O)N([C@H](C)CO)C[C@H]2C)cc1 | 1 | 0 | 0.9
COc1ccccc1NC(=O)N1CCCCN2[C@H](CO)[C@H](c3ccc(C#CC4CCCC4)cc3)[C@@H]2C1 | -6 | 3 | -8.9
Cc1ccccc1-c1ccc([C@@H]2[C@@H](CO)N3CCCCN(S(=O)(=O)c4ccc(F)cc4)C[C@H]23)cc1 | -40* | -39* | -0.1*
COc1cccc(C(=O)Nc2ccc3c(c2)C(=O)N(C)[C@@H]2CC[C@H](CC(=O)NCC(F)(F)F)O[C@@H]2CO3)c1 | 1 | -7 | 7.6

In the list so far, these have a COOH group.
SMILES | DUX4 inh | DUX4 inh difference | DUX4 inh control
C[C@H](CO)N1C[C@H](C)[C@H](CN(C)Cc2ccc(C(=O)O)cc2)Oc2ccc(NS(=O)(=O)c3ccccc3)cc2CC1=O | 1 | 2 | -0.5
C[C@H]1CN([C@@H](C)CO)C(=O)c2c(c3ccccc3n2C)-c2ccccc2CO[C@H]1CN(C)Cc1cccc(C(=O)O)c1 | -2 | -5 | 3.7

Back to the main list with the three entries that preceded the break.
SMILES | DUX4 inh | DUX4 inh difference | DUX4 inh control
COc1ccccc1NC(=O)N1CCCCN2[C@H](CO)[C@H](c3ccc(C#CC4CCCC4)cc3)[C@@H]2C1 | -6 | 3 | -8.9
Cc1ccccc1-c1ccc([C@@H]2[C@@H](CO)N3CCCCN(S(=O)(=O)c4ccc(F)cc4)C[C@H]23)cc1 | -40* | -39* | -0.1*
COc1cccc(C(=O)Nc2ccc3c(c2)C(=O)N(C)[C@@H]2CC[C@H](CC(=O)NCC(F)(F)F)O[C@@H]2CO3)c1 | 1 | -7 | 7.6
CO[C@H]1CN(C)C(=O)c2cc(NS(=O)(=O)CC(F)(F)F)ccc2OC[C@@H](C)N(C)C[C@@H]1C | -3 | -3 | 0.0
C[C@@H]1CCCCO[C@H](CN(C)Cc2ccc(C(=O)Nc3ccccc3N)cc2)[C@@H](C)CN([C@H](C)CO)C(=O)c2cc(NS(=O)(=O)c3cn(C)cn3)ccc2O1 | -3 | -5 | 2.3
COc1ccc2c3c(n(C)c2c1)[C@@H](CO)N(Cc1ccccc1F)CC31CCN(C(=O)C2CCOCC2)CC1 | -3 | -9 | 6.4
C[C@@H]1CN([C@H](C)CO)C(=O)c2ccccc2-c2ccccc2CO[C@H]1CN(C)C(=O)[C@@H]1CCCN1C | -4 | -18 | 15
Cc1ccc(S(=O)(=O)N2CC[C@@H]3[C@H]2c2cc(-c4ccc(C#N)cc4)ccc2N[C@@H]3CO)cc1 | 9 | 12 | -3.2
CN(C)CC(=O)Nc1ccc2c(c1)[C@@H]1C[C@H](CC(=O)NCc3ccccn3)O[C@H](CO)[C@@H]1O2 | 5 | 10 | -4.1
COCCNC(=O)[C@@H]1[C@@H](CO)[C@@H]2Cn3c(cccc3=O)[C@@H]2N1Cc1ccccc1OC | 7 | 4 | 2.7
O=C(NC1CCC1)[C@H]1[C@H](CO)[C@H]2Cn3c(cccc3=O)[C@H]2N1CCc1ccccc1 | 20 | 42 | -22
CCc1cnc(N2[C@H](C#N)[C@@H](c3ccc(C#Cc4ccccc4F)cc3)[C@H]2CO)s1 | -1 | -7 | 5.1
O=C(Cc1ccccc1)N1CC(=O)N2[C@@H](CO)[C@@H](c3ccc(Br)cc3)[C@@H]2C1 | 15 | 3 | 12
CCC(=O)N1CC[C@@H]2[C@H]1c1cc(C#Cc3cccc(OC)c3)ccc1N[C@@H]2CO | -3 | 0 | -2.8
O=C(C[C@H]1CC[C@H](NS(=O)(=O)c2ccccc2F)[C@@H](CO)O1)NCCCN1CCOCC1 | -1 | -3 | 2.5
COc1ccc2c3c([nH]c2c1)[C@@H](CO)N(C(=O)c1ccncc1)CC31CN(C(=O)C2CCC2)C1 | 12 | 10 | 2.7
CCCNC(=O)C[C@H]1C[C@@H]2c3cc(NC(=O)Nc4ccc(F)cc4)ccc3O[C@@H]2[C@@H](CO)O1 | 0 | -4 | 4.2
Cc1cccc(-c2ccc([C@H]3[C@@H](CO)N4C(=O)CN(C(=O)c5cnccn5)C[C@@H]34)cc2)c1 | 11 | 5 | 5.3
CNC[C@@H]1Oc2c(NC(=O)c3nc4ccccc4s3)cccc2C(=O)N([C@@H](C)CO)C[C@@H]1C | 2 | 6 | -4.6
COc1ccc(C#Cc2ccc([C@H]3[C@H]4CN(C(=O)Nc5ccccc5F)CCCCN4[C@H]3CO)cc2)cc1 | -6 | 7 | -13
C[C@@H]1CN([C@@H](C)CO)C(=O)c2c(c3ccccc3n2C)-c2ccccc2CO[C@@H]1CN(C)Cc1cccc(O)c1 | -10 | -15 | 5.6
CO[C@@H]1CN(C)C(=O)c2cc(NC(=O)CC(F)(F)F)ccc2OC[C@@H](C)N(C(C)=O)C[C@@H]1C | 3 | 5 | -2.1
Cc1noc(C)c1S(=O)(=O)Nc1cccc2c1O[C@@H](CN(C)Cc1ccc(C(F)(F)F)cc1)[C@@H](C)CN([C@H](C)CO)C2=O | 0 | -2 | 1.4
CCC(=O)N1CC(=O)N2[C@H](CO)[C@H](c3ccc(-c4ccc(C#N)cc4)cc3)[C@H]2C1 | 1 | 0 | 0.8
O=C(Nc1cccc(Cl)c1)N1C[C@@H]2[C@H](c3ccccc31)[C@@H](CO)N2Cc1ccccc1Cl | 3 | 3 | 0.4
C[C@H]1CN([C@@H](C)CO)C(=O)CCCn2cc(nn2)CO[C@H]1CN(C)Cc1ccc2c(c1)OCCN2C | -2 | -4 | 2.1
COc1ccccc1NC(=O)Nc1ccc2c(c1)C(=O)N(C)C[C@H](OC)[C@H](C)CN[C@@H](C)CO2 | -6 | -2 | -3.6
